Insulin prom inh – TRM-6 insulin promoter activity inhibition | TRM-6 cells (human fetal islet line), insulin promoter-eGFP reporter, imaging; reporter expression induced with tamoxifen | inhibition, % at 2 µM | 130,000 tested, 0.9% active;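 active means inhibition above the mean plus 3 SD, with well images judged a real hit on visual review, cut at about 60% in these data, passing the limit was not always enough; inconclusive means inhibition over the cutoff but images rejected on review; inactive means inhibition not above the cutoff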
GALR2 agonist – activates the human galanin receptor 2; O43603; GALR2-expressing cells, agonist activation read-out; activation, %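 (tested at 5 µM)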; 140,000 tested, 0.48% active;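 active means above mean plus 3 SD of all compounds, about 5% in these data, not always enough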;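 further: 0% = vehicle buffer wells and 100% = reference agonist at full effect; tested in CHO reporter cells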
Target sequence (O43603 whole entry, looked up): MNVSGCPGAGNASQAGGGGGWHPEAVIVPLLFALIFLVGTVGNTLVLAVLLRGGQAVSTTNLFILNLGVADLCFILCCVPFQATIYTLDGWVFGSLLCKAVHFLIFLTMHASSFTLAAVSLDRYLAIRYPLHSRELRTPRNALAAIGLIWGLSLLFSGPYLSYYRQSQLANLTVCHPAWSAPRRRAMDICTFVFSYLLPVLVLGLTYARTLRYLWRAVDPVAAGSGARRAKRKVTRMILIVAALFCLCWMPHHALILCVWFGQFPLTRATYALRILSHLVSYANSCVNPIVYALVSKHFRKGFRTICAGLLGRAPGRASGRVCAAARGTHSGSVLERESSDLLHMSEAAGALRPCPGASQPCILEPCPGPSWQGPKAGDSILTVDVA
PKD1 inh – inhibitors of human PKD1 kinase; inhibition, %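 (about 10 µM by stock and volumes)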; 200,000 tested, 0.056% active; PKD1 kinase fluorescence polarization assay; Q15139;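 active means inhibition of 50% or more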;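 further: controls were vehicle for no effect and a reference inhibitor for full effect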
RGS16-Gao HTS – RGS16-Galphao interaction regulator (human); O15492+P09471; bead-based flow cytometry RGS16-Galphao binding, fluorescence; actives lie on both sides; 220,000 tested, 0.38% active; binding response (% of control), % at 10 µM;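 active means below 25% or above 175%, edge rows of some plates excepted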;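 further: Galphao activated by GDP with aluminum fluoride before binding; 100% = wells without compound and 0% = beads without RGS; some results beyond the cut were filed as inactive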
Target sequence (O15492 whole entry, looked up): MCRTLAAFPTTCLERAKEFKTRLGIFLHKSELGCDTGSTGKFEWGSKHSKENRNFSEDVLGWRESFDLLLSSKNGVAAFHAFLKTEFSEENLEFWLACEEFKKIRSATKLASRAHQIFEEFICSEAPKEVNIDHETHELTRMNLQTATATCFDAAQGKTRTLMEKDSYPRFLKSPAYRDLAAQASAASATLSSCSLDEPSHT
Target sequence (P09471 whole entry, looked up): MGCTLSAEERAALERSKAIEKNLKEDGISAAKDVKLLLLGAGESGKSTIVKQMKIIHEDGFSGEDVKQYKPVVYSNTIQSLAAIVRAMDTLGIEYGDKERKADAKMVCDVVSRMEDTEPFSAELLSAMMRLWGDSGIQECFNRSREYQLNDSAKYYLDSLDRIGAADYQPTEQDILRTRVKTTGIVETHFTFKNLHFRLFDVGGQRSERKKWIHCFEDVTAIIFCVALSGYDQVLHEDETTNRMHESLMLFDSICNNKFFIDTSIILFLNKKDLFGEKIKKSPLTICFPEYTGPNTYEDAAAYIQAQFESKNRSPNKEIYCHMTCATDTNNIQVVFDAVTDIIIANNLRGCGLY
HSV replic up – increases HSV replication in cells. 220,000 tested, 0.005% active. HSV replication augmentation in cells, fold increase. maximum fold increase;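 active means peak rise of 1.5-fold or more in the series; inconclusive means self-fluorescent or not available for retest; tested in PC3 cells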;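 further: first round at 10 µM; read as green reporter fluorescence; hits show the peak of a series up to 25 µM; 1 = signal of infected wells without compound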
Insulin prom inh cell count – second read-out of Insulin prom inh, no call of its own (marks repeat the call); normalized cell count, %; measured here: cell count, toxicity; reference of the scale not given here;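 cells exposed to compound for 48 h; stained nuclei by imaging scaled within each plate; lower means fewer cells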
HSV replic up primary fold – further read-out of HSV replic up, marked with its call; fold increase; compound at 10 µM; measured here: primary screen fold increase 10 uM; tested in PC3 cells;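 GFP signal in the first replicate; 1 = infected wells without compound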
* = called active by the depositor; i = inactive; u = inconclusive; x = no result given; [ ] = dose if it differs, or a comment.

SMILES	Insulin prom inh	Insulin prom inh cell count	GALR2 agonist	PKD1 inh	RGS16-Gao HTS	HSV replic up	HSV replic up primary fold
CCN(CC)CCCN(Cc1cc2cc3c(cc2[nH]c1=O)OCO3)C(=S)Nc1ccc(OC)cc1	x	x	x	0	98	i	0.84
CC(=O)Nc1ccc(NS(=O)(=O)c2ccc(Cl)c(C(=O)O)c2)cc1	79*	22*	-2.8	-3	104	i	1
CCCCCC(=O)C(=O)c1ccc(O)cc1O	x	x	x	x	99	i	0.98
O=C(Cc1ccc(Cl)cc1Cl)NCC1(N2CCOCC2)CCCCC1	x	x	x	0	97	i	1
O=C(NC1CCCCCC1)C1CCN(S(=O)(=O)c2ccccc2)CC1	-18	36	-0.1	-1	-449	i	0.95
O=C(O)c1cccc(-n2nnnc2SCc2ccccn2)c1	56	123	-1.3	-6	101	i	1.1
COC(=O)C1=CN(CC2CCCO2)C=C(C(=O)OC)C1c1ccsc1 (stereo unspecified)	x	x	2.2	-16	103	i	0.71
Cc1ccc2nc(NC(=O)c3cc(-c4ccco4)nc4ccccc34)sc2c1	x	x	-0.3	-8	98	i	1
COC(=O)c1ccc(C(=O)OC)c(NC(=O)Oc2ccccc2)c1	x	x	1.9	-11	102	i	0.85
Cc1nn(Cc2c(F)cccc2Cl)c(C)c1[N+](=O)[O-]	x	x	x	10	111	i	1.3
Cc1ccccc1OCCCSc1nc2ccccc2[nH]1	38	96	-1.0	-6	70	i	1.1
NS(=O)(=O)c1ccc(CCNC(=O)Nc2ccc(Cl)c(Cl)c2)cc1	x	x	-2.4	1	92	i	0.89
CCCCn1c(/C=N/Nc2nc3ccccc3[nH]2)nc2ccccc21	x	x	0.8	-7	102	i	1.1
COc1ccc(CN2CCN(c3ccccn3)CC2)cc1OCc1ccccc1	15	112	0.1	-13	101	i	0.97
COc1ccc(Oc2nc(-c3ccncc3)nc3ccccc23)cc1	x	x	x	x	102	i	0.9
CCOC(=O)C1=C(C)OC(N)=C(C#N)C1c1cc(F)ccc1F (stereo unspecified)	6	66	-3.2	-2	98	i	0.75
Cc1nc2ccccc2c(=O)n1NC(=O)c1ccco1	-62	66	-3.6	3	107	i	0.63
CC1CCN(C(=O)CN2C(=O)c3cccc4cccc(c34)C2=O)CC1	-9	107	x	-2	116	i	0.88
CC(c1ccco1)N(C(=O)c1ccccc1NS(=O)(=O)c1ccc(Cl)c([N+](=O)[O-])c1)c1ccccn1 (stereo unspecified)	-17	55	-0.9	-6	172	i	0.74
O=C(Nc1nnc(-c2ccc(Cl)cc2)o1)NC1CCCCC1	7	166	-0.8	-1	108	i	0.96
Cn1cc([N+](=O)[O-])c(C(=O)Nc2ccc(Br)cn2)n1	-22	62	-3.2	-10	98	i	0.67
CC1CCc2c(sc(Nc3nc4c(F)cccc4s3)c2C(N)=O)C1 (stereo unspecified)	x	x	-0.6	-4	95	u	x
CC(C)(C)n1nnnc1C(c1cccs1)N1CCN(Cc2ccccc2)CC1 (stereo unspecified)	3	135	-4.3	1	73	i	1.1
COCC(C)NC(=O)COc1nncc2ccccc12 (stereo unspecified)	56	80	x	-3	95	i	1
CC(C)c1onc(C(=O)N2C(C)CCCC2C)c1[N+](=O)[O-] (stereo unspecified)	x	x	0.8	-14	107	i	0.92

Arranged by number of heavy atoms (low to high): 12 of the compounds above
SMILES	Insulin prom inh	Insulin prom inh cell count	GALR2 agonist	PKD1 inh	RGS16-Gao HTS	HSV replic up	HSV replic up primary fold
CCCCCC(=O)C(=O)c1ccc(O)cc1O	x	x	x	x	99	i	0.98
Cc1nn(Cc2c(F)cccc2Cl)c(C)c1[N+](=O)[O-]	x	x	x	10	111	i	1.3
COCC(C)NC(=O)COc1nncc2ccccc12 (stereo unspecified)	56	80	x	-3	95	i	1
Cc1ccccc1OCCCSc1nc2ccccc2[nH]1	38	96	-1.0	-6	70	i	1.1
O=C(O)c1cccc(-n2nnnc2SCc2ccccn2)c1	56	123	-1.3	-6	101	i	1.1
CCOC(=O)C1=C(C)OC(N)=C(C#N)C1c1cc(F)ccc1F (stereo unspecified)	6	66	-3.2	-2	98	i	0.75
COC(=O)c1ccc(C(=O)OC)c(NC(=O)Oc2ccccc2)c1	x	x	1.9	-11	102	i	0.85
COC(=O)C1=CN(CC2CCCO2)C=C(C(=O)OC)C1c1ccsc1 (stereo unspecified)	x	x	2.2	-16	103	i	0.71
CC(C)(C)n1nnnc1C(c1cccs1)N1CCN(Cc2ccccc2)CC1 (stereo unspecified)	3	135	-4.3	1	73	i	1.1
COc1ccc(CN2CCN(c3ccccn3)CC2)cc1OCc1ccccc1	15	112	0.1	-13	101	i	0.97
CCN(CC)CCCN(Cc1cc2cc3c(cc2[nH]c1=O)OCO3)C(=S)Nc1ccc(OC)cc1	x	x	x	0	98	i	0.84
CC(c1ccco1)N(C(=O)c1ccccc1NS(=O)(=O)c1ccc(Cl)c([N+](=O)[O-])c1)c1ccccn1 (stereo unspecified)	-17	55	-0.9	-6	172	i	0.74

(listing goes on)
SMILES	Insulin prom inh	Insulin prom inh cell count	GALR2 agonist	PKD1 inh	RGS16-Gao HTS	HSV replic up	HSV replic up primary fold
COc1ccc(CN2CCN(S(=O)(=O)c3ccc(C)cc3)CC2)cc1Br	44	65	-2.9	8	103	i	0.71
CC[N+]1(CC)CC2=Cc3c(ccc4ccccc34)CC2C1 (stereo unspecified)	-4	88	-1.6	-10	96	i	0.93
CC(C)(C)c1ccccc1OCCOCCSc1ncccn1	-53	53	0.6	-6	102	i	0.94
Nc1nonc1-c1noc(-c2ccc(Br)o2)n1	31	111	-2.5	-6	105	x	x
CCOC(=O)c1ccc(NC(=S)N2CCCC2c2ccc(OC)c(OC)c2)cc1 (stereo unspecified)	-35	121	x	-2	103	i	1
O=C(/C=C/c1cccc([N+](=O)[O-])c1)NC1CC2CCC1C2 (stereo unspecified)	26	96	-0.8	-2	149	i	0.9
NC(=O)c1nn(-c2ccccc2)nc1NC(=O)CSc1nnnn1-c1ccc(Cl)cc1	3	130	-1.0	-6	104	i	0.9
O=C(NCc1ccco1)c1cccc(C(F)(F)F)c1	-25	175	x	3	105	i	0.89
CCc1cccc(CC)c1NC(=O)CN1C2CCCC1CC(NC(=O)Nc1cccc(OC)c1)C2 (stereo unspecified)	x	x	x	-4	193	i	0.97
Cc1ccc(C(=O)Oc2ccc(C(=O)COC(=O)c3cnccn3)cc2)cc1	-22	97	-4.9	9	104	i	0.92
O=C(c1ccc2c(c1)OCCO2)N1CCCCC1	-23	160	-0.4	-1	101	i	0.99
Cc1nc2ccccc2c2c1CC(C)S2 (stereo unspecified)	x	x	x	x	96	i	0.85
Cc1cc(C(F)(F)F)nc(SCC(=O)NC2=NC(=O)C(C)S2)n1 (stereo unspecified)	-150	85	-2.5	-6	97	i	0.81
O=C(NCc1ccc2c3c(cccc13)C(=O)N2)c1cccs1	x	x	x	x	102	i	0.81
COc1cc(CNCc2ccccn2)ccc1OCC(=O)NC(C)(C)C	x	x	-0.5	-8	115	i	0.93
COc1ccc(S(=O)(=O)NC(N)=NCCc2ccccc2)cc1	x	x	x	-3	99	i	0.95
CC(=O)NC(NC(C)=O)c1ccc(N(C)C)cc1	49	117	-2.9	-9	106	i	1.1
Cc1noc(C)c1C(=O)Nc1sc2c(c1C(N)=O)CCC2	i	47	-0.9	2	204	i	1
Cc1cnc(NC(=O)Cc2c[nH]c3ccccc23)s1	-5	61	-2.6	5	101	i	0.84
Cc1c(C(=O)OCCN2CCCCC2)oc2ccccc12	-6	102	-1.1	-6	101	i	1
COc1ccc(CN(CC2CCCO2)C(=O)CN2C(=O)C(C)Oc3ccc(C)cc32)cc1OC (stereo unspecified)	-227	85	-0.6	-10	98	i	0.99
COc1cc(S(=O)(=O)N2CCN(C)CC2)c(OC)cc1Br	31	75	-0.9	4	111	i	1
CCOc1ccccc1NC(=O)C1CCN(S(=O)(=O)c2cccc3cccnc23)CC1	x	x	x	-9	105	x	x
O=C(O)c1cc([N+](=O)[O-])ccc1NCCc1ccccc1	x	x	x	x	100	i	0.75
CNC(=S)N1CCc2cc(OC)c(OC)cc2C1	x	x	x	x	99	i	0.94
(further entries)
SMILES	Insulin prom inh	Insulin prom inh cell count	GALR2 agonist	PKD1 inh	RGS16-Gao HTS	HSV replic up	HSV replic up primary fold
CCn1c(=O)c2cc(C(=O)N(C)c3ccc(OC)cc3OC)sc2c2ccccc21	x	x	x	x	95	i	0.94
N/C(=N/OCc1cccc([N+](=O)[O-])c1)c1nonc1N	0	50	0.7	5	127	i	0.93
Cc1csc2c(N3CCN(C(=O)Nc4ccccc4)CC3)ncnc12	x	x	x	x	98	i	1
COc1cc(C2Nc3cccc4cccc(c34)N2)cc(OC)c1O	14	123	-1.0	1	57	i	1
O=C(CN1CCN(c2ccc(F)cc2)CC1)NCc1cccs1	-50	75	x	0	99	i	1
O=C(NC(=S)Nc1ccc(S(=O)(=O)N2CCCC2)cc1)C1CCC1	-17	81	0.1	-7	108	i	1
Cc1nn(-c2ccccc2)c(Cl)c1C1C(C#N)=C(N)Oc2n[nH]c(C)c21 (stereo unspecified)	x	x	-2.0	1	107	i	0.92
COC(=O)CNC(=O)C(Cc1c[nH]c2ccccc12)NC(=O)OC(C)(C)C (stereo unspecified)	x	x	-1.3	10	89	i	0.83
O=C(Cc1cccs1)NCc1cccc(CNC(=O)Cc2cccs2)c1	-79	82	x	-4	106	i	1.1
COc1ccc2cc(Br)ccc2c1CC(=O)NC(C)C	-57	34	x	-7	106	i	0.97
COc1cc(C(=O)NC(CCSC)C(=O)OCc2cc([N+](=O)[O-])cc3c2OCOC3)cc(OC)c1OC (stereo unspecified)	-57	118	x	-1	99	i	0.96
CC1CN(S(=O)(=O)c2cccc(C(=O)NN3CCN(C)CC3)c2)CC(C)O1 (stereo unspecified)	x	x	0.5	0	104	i	1
C=C(C)CNC(=S)/N=c1\scc(C)n1CC	39	167	1.6	-2	105	i	0.8
O=Cc1nc(-c2ccccc2Cl)n2ccccc12	33	115	-0.5	1	103	i	0.95
COc1ccc(N2CCN(C(c3cc4ccc(C)cc4[nH]c3=O)c3nnnn3C3CCCC3)CC2)cc1 (stereo unspecified)	x	x	-0.9	10	97	i	0.94
Cc1ccc(SCCCn2cncn2)cc1	-40	88	-4.8	2	75	i	1
CCn1c(SCC(=O)Nc2ccc3c(c2)OCCO3)nnc1-c1ccco1	-80	78	-1.6	-6	101	i	1
Cc1ccccc1CSc1nc2[nH]ncc2c(=O)[nH]1	-72	102	x	2	103	i	1
COc1ccc(N(CN2C(=O)C3CCCCC3C2=O)C(=O)c2ccco2)cc1 (stereo unspecified)	x	x	x	x	103	i	0.9
C=CCSc1nnc2c(n1)OC(c1ccccn1)N(C(C)=O)c1ccccc1-2 (stereo unspecified)	25	83	-0.4	0	114	i	0.87
O=C(CSc1nnc(-c2ccc(O)cc2)n1Cc1ccco1)c1cccs1	x	x	-1.8	8	99	i	0.97
COc1ccc(N2CCN(C(CNC(=O)OCc3ccccc3)c3ccco3)CC2)cc1 (stereo unspecified)	5	57	-0.8	3	189*[activator]	i	0.88
Cc1c(CN2CCc3c([nH]c4ccccc34)C2CC(C)C)cnn1C (stereo unspecified)	x	x	x	1	111	i	1.1
C=CCNC(=O)COC(=O)COc1ccc(Cl)cc1C	14	49	-0.5	-7	100	i	0.98
Cc1ccc(CSc2nc3c(cc2C#N)CCC3)cc1	22	53	0.1	-15	101	i	1
N#Cc1ccc(NC(=O)CCc2ccc(S(=O)(=O)N3CCOCC3)cc2)cc1	14	63	-1.2	11	101	i	1.1
CC1CCCC(C)N1C(=O)COc1ccc(-c2nnco2)cc1 (stereo unspecified)	16	104	-3.9	-6	105	i	1.1
OCCC1CN(Cc2ccn[nH]2)CCN1Cc1ccc(F)c(F)c1 (stereo unspecified)	x	x	x	7	97	i	0.98
Nc1ncnc(NNC(=O)CNC(=O)c2c(F)cccc2Cl)c1[N+](=O)[O-]	x	x	x	0	98	i	1
Cc1ccccc1NC(=O)COC(=O)/C=C/c1cn(-c2ccccc2)nc1-c1cccnc1	19	179	1.3	2	105	i	0.91

Record cards (already shown). Order of values: Insulin prom inh | Insulin prom inh cell count | GALR2 agonist | PKD1 inh | RGS16-Gao HTS | HSV replic up | HSV replic up primary fold
O=Cc1nc(-c2ccccc2Cl)n2ccccc12 is listed with 33 | 115 | -0.5 | 1 | 103 | i | 0.95
Cc1c(CN2CCc3c([nH]c4ccccc34)C2CC(C)C)cnn1C (stereo unspecified) is listed with x | x | x | 1 | 111 | i | 1.1

Bioassay records: PubChem, several laboratories
